# Screening data (PubChem)
# GIRK2 activ: activators of human GIRK2 potassium channels | G protein-activated inward rectifier potassium channel 2 (Homo sapiens), P48051 | HEK293-GIRK2 thallium flux, Thallos fluorescence | calls only for hits at 25 µM | 63,000 tested, 0.05% active | AID 1259325, 2017;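 active means among the strongest 0.2% of first-round signals and kept after retests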;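 further: first round at about 10 µM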
# Target sequence (P48051 whole entry, looked up): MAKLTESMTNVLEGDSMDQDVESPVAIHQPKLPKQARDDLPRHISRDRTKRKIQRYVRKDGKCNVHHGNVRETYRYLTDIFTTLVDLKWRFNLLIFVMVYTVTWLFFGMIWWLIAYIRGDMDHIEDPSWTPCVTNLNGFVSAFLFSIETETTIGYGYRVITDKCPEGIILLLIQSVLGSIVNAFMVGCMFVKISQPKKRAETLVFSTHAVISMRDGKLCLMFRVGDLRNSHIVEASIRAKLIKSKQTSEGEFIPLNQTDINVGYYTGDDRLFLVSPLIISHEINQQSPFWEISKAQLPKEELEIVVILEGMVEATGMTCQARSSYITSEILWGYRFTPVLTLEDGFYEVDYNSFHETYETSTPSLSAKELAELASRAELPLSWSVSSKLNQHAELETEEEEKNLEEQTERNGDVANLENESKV
# Calls only; i = inactive. The list is partial; count on the stated rates, not on these rows.
compound,GIRK2 activ
CCOc1ccccc1Oc1c(C)oc2c3c(ccc2c1=O)OCN(Cc1ccccn1)C3,i
O=C(NCc1cccs1)N1CCCC(COCc2ccccc2)C1 (centres undefined),i
O=C1CCSCC(C(=O)NCCCn2ncccc2=O)N1 (centres undefined),i
CCOc1ccccc1CNC(=O)C1CCN(S(=O)(=O)N2CCCC2)CC1,i
COc1ccc(CCC(=O)N(Cc2ccoc2)Cc2cccs2)cc1,i
Cc1[nH]c(=O)n(C)c(=O)c1CCc1nnc(SCC(=O)N2CCc3ccccc32)o1,i
COc1ccccc1Oc1cnc(N)nc1-c1ccc(OCc2cc(C)ccc2C)cc1O,i
NS(=O)(=O)c1ccc(NC(=O)c2c3c(nn2C2CCS(=O)(=O)C2)CCC3)cc1 (centres undefined),i
COc1cc(NC(=O)N2CC(=O)Nc3ccccc32)cc(OC)c1OC,i
COc1ccccc1N1CCN(CCNC(=O)C(=O)NCc2cccs2)CC1,i
Cc1ccc(-n2ccnc(SCC(=O)Nc3ccc(C(C)C)cc3)c2=O)cc1,i
CN(C)CC1CSCCCN1S(=O)(=O)c1ccc(C(C)(C)C)cc1 (centres undefined),i
COc1cc(S(=O)(=O)N2CCN(c3ccc(F)cc3)CC2)c(C)cc1C,i
COc1ccc(CCNC(=O)c2ccc(OCc3nc(C4CC4)cs3)cc2)cc1OC,i
N#Cc1ccsc1NC(=O)NC(c1ccccc1)c1ccccc1,i
CCCn1c(=O)c2c(nc3n2CC(C)CN3c2ccc(OC)cc2)n(C)c1=O (centres undefined),i
O=C(/C=C\c1ccc2c(c1)OCO2)N1CCN(Cc2nnnn2-c2ccccc2)CC1,i
Cc1ccc(F)cc1NC(=O)CN1CCC(c2nc(-c3cccc(F)c3)no2)CC1,i
O=P(O)(O)OC1C(O)C(O)C(O)C(O)C1O (centres undefined),i
Cc1ccc(S(=O)(=O)N(C)CCCCCC(=O)NC(C)C)cc1,i
Cc1cc(C(=O)NCCn2nc(C(F)(F)F)n(C)c2=O)no1,i
COc1cc(/C=C/C(=O)N2CCC(COCc3ccc(F)cc3)CC2)cc(OC)c1OC,i
O=C(NCc1ccc2c(c1)OCO2)c1ccc2c(=O)n(-c3ccc(F)cc3)c(N3CCCC3)nc2c1,i
Cc1ccc(NC(=O)NCCC(O)C2CC2)cc1C (centres undefined),i
Cc1nc(-c2ccccc2)sc1C(=O)N1CCN(c2cc(-n3ccnc3)ncn2)CC1,i
COc1ccc(Cl)cc1NC(=O)C(=O)NCC(O)(c1ccccc1)C1CC1 (centres undefined),i
COc1ccc(S(=O)(=O)NCCc2nc(-c3ccco3)cn2C)cc1F,i
CC(C)Oc1ccc(C(=O)Nc2nc(CN3CCc4ccccc4C3)cs2)cc1,i
COC(=O)c1ccc(NC(=O)CSc2nccn2-c2ccc(C(=O)NCc3ccco3)cc2)cc1,i
COc1ccc(C)cc1NC(=O)CN1C(=O)NC(c2ccccc2)C2=C1COC2=O (centres undefined),i
Cc1nc(-c2cccc(NC(=O)c3nnn(-c4nccs4)c3C)c2)cs1,i
Cc1cc(C)n(-c2ccc(=O)n(CC(=O)N3CCN(c4ncccn4)CC3)n2)n1,i
O=C(Nc1nc2ccccc2s1)c1nnn(-c2ccc(C(F)(F)F)cc2)n1,i
Cc1nc(-n2nc(-c3cccs3)cc2NC(=O)c2cc(=O)c3ccccc3o2)[nH]c(=O)c1C,i
O=C(CSc1nnc2ccc(C(=O)Nc3cccc(F)c3)cn12)Nc1ccc(Cl)cc1,i
Cc1cccc(C)c1NC(=O)c1n[nH]nc1Nc1cccc(Cl)c1,i
O=C(NCc1n[nH]c(=O)c2ccccc12)c1ccc(Cl)c([N+](=O)[O-])c1,i
COC(=O)C1=CO[C@@H](O[C@@H]2O[C@H](CO[C@@H]3O[C@H](CO)[C@@H](O)[C@H](O)[C@H]3O)[C@@H](O)[C@H](O)[C@H]2O)[C@@H]2C(CO)=CC[C@H]12,i
CCN(CC)C(=O)C(=O)c1cn(CC(=O)N2CCOCC2)c2ccccc12,i
COc1cc(C)c2occ(/C(C)=N/O)c2c1,i
COc1cccc(-n2nnc(C(=O)NCc3ccc4c(c3)OCO4)c2-c2cccnc2)c1,i
O=C(Nc1ccc(F)cc1F)C1CCN(S(=O)(=O)c2ccc(Cl)cc2)CC1,i
Cc1ccc(=O)n(CC(=O)Nc2cc(N3CCN(Cc4ccccc4)CC3)ncn2)n1,i
Cc1ccc2nc(-c3ccc(NC(=O)CCC(=O)O)cc3)[nH]c2c1,i
CCc1cc(=O)[nH]c(-n2nc(C3CC3)cc2NC(=O)c2cccs2)n1,i
O=C(OCC1OC(Oc2ccc(O)cc2COC(=O)C2(O)C(O)CCC(O)C2O)C(O)C(O)C1O)c1ccccc1 (centres undefined),i
O=C(c1c(F)cccc1F)N1CCN(S(=O)(=O)C2CC2)CC1,i
COc1ccc(/C=C/C(=O)Nc2cc(N3CCCC3)ncn2)cc1,i
CCOc1ccc(-c2noc(Cn3ncn4nc(-c5ccc(F)cc5)cc4c3=O)n2)cc1OC,i
CCc1cccc(-n2nnc(C(=O)N3CCC(N4CCCCC4)CC3)c2-c2cccnc2)c1,i
Cc1ccc(NC(=O)c2ccc(Br)o2)cc1N1CCCC1=O,i
COCCNC(=O)C(=O)NCC(O)c1ccsc1 (centres undefined),i
COc1ccc(-c2nc(NC(=O)CSc3nnc4ccccn34)ns2)cc1,i
Cc1nnc(C2CCN(C(=O)COc3cccc4c3OC(C)(C)C4)CC2)s1,i
O=C(Nc1nccs1)c1csc(-c2cc3ccccc3[nH]2)n1,i
Cc1ccc(C)c(S(=O)(=O)N2CCN(c3c(C)cccc3C)CC2)c1,i

# (more compounds)
compound,GIRK2 activ
CCc1[nH]nc(S(=O)(=O)N2CCN(C(=O)c3ccco3)CC2)c1C(=O)OC,i
C=CCc1ccccc1OCC(O)CN1CCN(CCO)CC1 (centres undefined),i
Cc1nc(-c2ccccc2)sc1C(=O)Nc1cnc(-n2ccnc2C)nc1,i
Cn1c(=O)[nH]c(=O)c2c1nc1n(-c3ccccc3O)c(-c3ccc(F)cc3)cn21,i
O=C(NCCOc1cc(N2CCOCC2)ncn1)c1ccco1,i
CS(=O)(=O)N1CCN(CCNC(=O)CCSc2ccccc2)CC1,i
NC(=O)CN1CCN(Cc2nc(-c3cccs3)cs2)CC1,i
Cc1ccc2c(c1)N(C(=O)Cn1cnc3c(sc4ncccc43)c1=O)CCO2,i
CC(C)(C)c1ccc(OCC(=O)Nc2ccc(S(=O)(=O)N3CCOCC3)cc2)cc1,i
Cc1ccc(NC(=O)CN2C(=O)C3(SCC(=O)N3c3cccc(F)c3)c3ccccc32)c(C)c1 (centres undefined),i
COc1ccc2cccc(NC(=O)c3nc4ccccc4s3)c2n1,i
CCOc1ccccc1NC(=O)CN1CCC(c2nc(-c3ccc(C)cc3)no2)CC1,i
CCc1ccc(N2CCCn3c2nc2c3c(=O)n(CC(C)=O)c(=O)n2C)cc1,i
CC(C)c1nccn1CC1CCN(C(=O)Nc2ccc(C(C)(C)C)cc2)CC1,i
COc1ccc(C)cc1-n1c(C)cn2c3c(=O)n(CC(C)=O)c(=O)n(C)c3nc12,i
Cc1ccc(N2CN(CC(=O)NCc3ccc(F)cc3)S(=O)(=O)c3cccnc32)cc1,i
CCNc1cc(C)nc(NCCNC(=O)c2cc(-n3cccn3)nc(C)n2)n1,i
CC(C)CN1CCN(C(=O)c2cn(-c3ccc(-c4nc(C(C)(C)C)no4)cn3)cn2)CC1,i
Cc1ccc(Nc2c(C(=O)N3CCOCC3)cnc3ccccc23)c(Cl)c1,i
COc1ccccc1/C=C1\Oc2cc(OC(=O)C(C)(C)C)ccc2C1=O,i
CCN(CC)c1nc2c(c(=O)[nH]c(=O)n2C)n1CC(O)COc1cccc(C)c1 (centres undefined),i
CC(Cn1nc(-c2cccs2)ccc1=O)C(=O)Nc1ccc(F)c(C(F)(F)F)c1 (centres undefined),i
Cc1cc(C(=O)Nc2nc(C(=O)NCCc3ccc(Cl)cc3)co2)no1,i
O=C(NCC1(c2cccs2)CC1)C1(c2ccc(F)cc2)CC1,i

# Additional results:
Structure	GIRK2 activ
COC(=O)c1ccc(S(=O)(=O)N2CC(c3nc(-c4ncccn4)no3)C2)cc1	i
Cc1cccc(C)c1NC(=O)Cn1nc2cc(-c3ccccn3)nc(C)n2c1=O	i
CCCCCC(O)CC(=O)O[C@H]1[C@H](OCC(O)CCCCCCCCCCCC(CC(=O)O)O[C@@H]2O[C@H](COC(C)=O)[C@@H](O)[C@H](O)[C@H]2O)O[C@H](COC(C)=O)[C@@H](O)[C@@H]1O (some centres undefined)	i
CCOC(=O)CNC(=O)CN1CCc2nc(NC(C)=O)sc2C1	i
CCCC(=O)Nc1ccc(S(=O)(=O)NCC(O)c2ccc(C)o2)cc1 (centres undefined)	i
Cc1cc2c(=O)n(Cc3ccco3)c(SCC(=O)Nc3cccc(C)c3C)nc2s1	i
CC(Oc1ccc2c(c1)OCO2)C(=O)N1CCN(c2ccc3nncn3n2)CC1 (centres undefined)	i
O=C(c1cncc(Br)c1)N1CCC(Oc2ccc(C(F)(F)F)cn2)CC1	i
O=C(/C=C/c1cccs1)NCCc1ccoc1	i
CC(C)c1cc(=O)n(CC(=O)Nc2ccccc2-c2ccc(=O)[nH]n2)cn1	i
COc1ccc(C)c2sc(N(Cc3ccncc3)C(=O)c3ccc(S(=O)(=O)N(C)C)cc3)nc12	i
COC(=O)c1ccc(CN2CCN(Cc3nc4ccccc4n3Cc3ccccc3)CC2)o1	i
Cc1ccc(C)c(S(=O)(=O)N2CC(c3nc4ccccc4[nH]3)C2)c1	i
COc1ccc(NC(=O)Cn2nc3c(N4CCCC4)nccn3c2=O)cc1	i
O=C(c1cc(C2CC2)n(CC(=O)N(Cc2ccccc2)c2ccccc2)n1)N1CCOCC1	i
O=C(C1CCCCC1)N1CCN(Cc2nc(C3CC3)cs2)CC1	i
CCCCCCCCCCCCCCCC(=O)OC[C@H](COP(=O)([O-])OCC[N+](C)(C)C)OC(=O)CCCCCCCCCCCCCCC	i
CCOC(=O)N1CCN(c2nc(N3CCCC3)c3n[nH]nc3n2)CC1	i
Cc1ccc(NS(=O)(=O)c2n[nH]c(C)c2C(=O)NCCc2ccccc2)cc1	i
COc1cccc(CNC(=O)C(=O)Nc2ccccc2[N+](=O)[O-])c1	i
CCN(C(=O)Cn1nc(C(=O)N2CCOCC2)cc1-c1cccs1)c1ccccc1C	i
O=C(Cn1cc(S(=O)(=O)N2CCCCC2)ccc1=O)NCc1ccc2c(c1)OCO2	i
CCc1nonc1NC(=O)C1COc2ccccc2O1 (centres undefined)	i
C=CCNC(=O)c1c(N)n(/N=C\c2ccccc2OC)c2nc3ccccc3nc12	i
O=C(NCC1CCN(c2ccccn2)CC1)C(=O)Nc1cc2c3c(c1)CCN3C(=O)CC2	i
CC(C)C1C(=O)NC(O)(Cc2ccccc2)c2nc3c(c(=O)n21)C=CC=CO3 (centres undefined)	i
O=C(Nc1ccc(Cl)c(Cl)c1)N1CCOC2(CCOCC2)C1	i
CCCCCCCCCCCCCCCCCCOC[C@H](COP(=O)([O-])OCC[N+](C)(C)C)OC(C)=O	i
O=C(Cn1ccc2ccccc21)N1CCN(c2cc(N3CCCC3)ncn2)CC1	i
COc1ccccc1N1CC(C)Cn2c1nc1c2c(=O)n(Cc2cccc(C)c2)c(=O)n1C (centres undefined)	i
COc1ccc(-n2c(-c3ccc(F)cc3)cn3c4c(=O)n(C)c(=O)n(C)c4nc23)c(OC)c1	i
O=C(NCC1CCN(c2cnccn2)CC1)Nc1cccc(C(F)(F)F)c1	i
CCCc1nnsc1C(=O)N1CCOCC1CO (centres undefined)	i
CC1Oc2ccccc2C=C1/C=C/C(=O)c1cccc(O)c1 (centres undefined)	i
CN(CC(=O)Nc1cccc(NS(C)(=O)=O)c1)c1nc2c(F)cccc2s1	i
O=C(CN1CCNCC1)C1CC1	i
COc1ccc(/C=C2\Oc3cc(OCC(C)=O)ccc3C2=O)cc1OC	i
CC(C)CCNC(=O)CSc1nccn2nc(-c3ccccc3)cc12	i
O=C(NCC(O)c1ccoc1)c1ccc2c(c1)OCO2 (centres undefined)	i
CCOc1ccccc1Oc1coc2cc(OCC(=O)OC(C)(C)C)ccc2c1=O	i
O=C(NCC1CCN(Cc2ccsc2)CC1)NC1CC1	i
O=C(CSc1ncccc1-c1nc2ccccc2[nH]1)NCC1CCCO1 (centres undefined)	i
COc1ccccc1CNC(=O)C(=O)NC1CCCCCC1	i
CN(C)S(=O)(=O)N1CCC(Oc2ncccc2Br)CC1	i
O=C(Nc1n[nH]c2cc(-c3ccccc3)ccc12)C1CC1	i

# Compounds from the list above that contain a thiophene ring, fused or not, in the order listed:
Structure	GIRK2 activ
O=C(NCc1cccs1)N1CCCC(COCc2ccccc2)C1 (centres undefined)	i
COc1ccc(CCC(=O)N(Cc2ccoc2)Cc2cccs2)cc1	i
COc1ccccc1N1CCN(CCNC(=O)C(=O)NCc2cccs2)CC1	i
N#Cc1ccsc1NC(=O)NC(c1ccccc1)c1ccccc1	i
Cc1nc(-n2nc(-c3cccs3)cc2NC(=O)c2cc(=O)c3ccccc3o2)[nH]c(=O)c1C	i
CCc1cc(=O)[nH]c(-n2nc(C3CC3)cc2NC(=O)c2cccs2)n1	i
COCCNC(=O)C(=O)NCC(O)c1ccsc1 (centres undefined)	i
NC(=O)CN1CCN(Cc2nc(-c3cccs3)cs2)CC1	i
Cc1ccc2c(c1)N(C(=O)Cn1cnc3c(sc4ncccc43)c1=O)CCO2	i
CC(Cn1nc(-c2cccs2)ccc1=O)C(=O)Nc1ccc(F)c(C(F)(F)F)c1 (centres undefined)	i
O=C(NCC1(c2cccs2)CC1)C1(c2ccc(F)cc2)CC1	i
Cc1cc2c(=O)n(Cc3ccco3)c(SCC(=O)Nc3cccc(C)c3C)nc2s1	i
O=C(/C=C/c1cccs1)NCCc1ccoc1	i
CCN(C(=O)Cn1nc(C(=O)N2CCOCC2)cc1-c1cccs1)c1ccccc1C	i
O=C(NCC1CCN(Cc2ccsc2)CC1)NC1CC1	i
